# Compound activity (PubChem)
# MCL1-BIM inh: MCL1-BIM-BH3 interaction inhibition (human); GST-MCL1 / FITC-Bim-BH3 fluorescence polarization; inhibition, % at 10.9 µM; 320,000 tested, 0.68% active; AID 2057;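 active = inhibition above the mean inhibition of all tested compounds plus 3 SD, set per campaign, cut at about 40% in these data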;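 also: 0% = DMSO wells and 100% = unlabeled Bim-BH3 peptide control; higher means more loss of mP so more displacement of Bim peptide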
# Target sequence (Q07820 whole entry, looked up): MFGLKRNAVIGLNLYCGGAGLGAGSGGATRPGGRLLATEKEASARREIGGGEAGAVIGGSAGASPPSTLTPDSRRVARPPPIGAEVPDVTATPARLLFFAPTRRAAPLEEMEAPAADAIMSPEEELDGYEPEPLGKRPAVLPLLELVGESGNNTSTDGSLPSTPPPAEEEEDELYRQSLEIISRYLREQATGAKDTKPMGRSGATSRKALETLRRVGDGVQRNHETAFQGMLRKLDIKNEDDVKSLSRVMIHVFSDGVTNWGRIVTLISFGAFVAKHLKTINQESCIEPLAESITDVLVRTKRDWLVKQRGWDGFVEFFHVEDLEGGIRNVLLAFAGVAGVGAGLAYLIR
# PAD4 FP inh: inhibitors of human PAD4; 330,000 tested, 0.41% active; inhibition, % at 6.36 µM; Q9UM07; recombinant PAD4, RCA probe fluorescence polarization;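 active = percent inhibition above a cutoff equal to the mean of all tested compounds plus 3 SD, cut at about 15% in these data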;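 also: 0% = PAD4 with RCA probe and DMSO and 100% = probe without PAD4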
# GLD-1 RNA inh: GLD-1-TGE RNA interaction inhibition (C. elegans). Q17339. purified GLD-1 + fluorescein TGE RNA, fluorescence polarization. inhibition, % at 5.96 µM. 320,000 tested, 0.44% active. AID 2280;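 active = percent inhibition above a per-plate cutoff, the plate mean of test compounds plus 3 SD, cut at about 30% in these data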;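 also: 0% = DMSO wells with GLD-1 and probe and 100% = wells lacking GLD-1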
# MEX-5 binding: C. elegans MEX-5 TCR-2 RNA binding activity. MEX-5/FITC-TCR2 RNA binding, fluorescence polarization; stronger effect = lower value. activity score (negative = inhibition of binding), % at 10 µM. 300,000 tested, 0.38% active. AID 1832;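 active = inhibition past about -25% in most replicates, and total fluorescence under double the plate's negative control median, limit read from the data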;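 also: 0% = DMSO and -100% = 5 µM competing unlabeled TCR2 RNA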
# Target sequence (Q9XUB2 whole entry, looked up): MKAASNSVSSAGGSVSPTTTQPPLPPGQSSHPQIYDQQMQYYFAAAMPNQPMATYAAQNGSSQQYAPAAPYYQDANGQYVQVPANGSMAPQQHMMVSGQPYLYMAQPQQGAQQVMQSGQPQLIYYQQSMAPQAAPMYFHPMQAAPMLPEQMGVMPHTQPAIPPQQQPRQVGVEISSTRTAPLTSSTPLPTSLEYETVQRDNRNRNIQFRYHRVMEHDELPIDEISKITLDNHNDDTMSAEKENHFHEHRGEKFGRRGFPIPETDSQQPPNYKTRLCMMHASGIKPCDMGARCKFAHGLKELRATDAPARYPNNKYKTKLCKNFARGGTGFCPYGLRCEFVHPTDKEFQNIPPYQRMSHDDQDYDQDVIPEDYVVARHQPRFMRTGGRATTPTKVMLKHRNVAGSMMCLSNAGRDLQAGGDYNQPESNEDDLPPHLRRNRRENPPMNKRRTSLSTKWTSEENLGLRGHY
# TPT1 inh: C. albicans TPT1 enzyme inhibition; recombinant caTPT1, FP RNA substrate dephosphorylation; inhibition, % at 5 µM; 300,000 tested, 0.81% active;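 active = inhibition above the mean of all tested compounds plus 3 SD, set per screening campaign, cut at about 24% in these data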;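 also: plate controls were DMSO alone for no effect and ferristatin control at 100 nM for full effect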
# Bcl-xL primary: inhibitors of human Bcl-xL | inhibition, % at 10.9 µM | Q07817 | AID 2129 | 320,000 tested, 0.7% active | GST-Bcl-xL / FITC-Bim BH3 peptide fluorescence polarization;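 active = inhibition above the mean of all tested compounds plus 3 SD, cutoff set per campaign, cut at about 30% in these data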;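 also: 0% = DMSO wells and 100% = unlabeled Bim-BH3 peptide competitor; inhibitors lower millipolarization by displacing the labeled peptide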
# Fam108B inh: blocks mouse Fam108B hydrolase in RBBP9 counter-screen; AID 1947; recombinant Fam108B, FP-Rh probe fluorescence polarization; inhibition, % at 9.51 µM; 300,000 tested, 0.33% active;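 active = inhibition above the screen mean inhibition plus 3 SD, computed separately per campaign, cut at about 18% in these data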;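 also: inhibitors lower polarization as less probe binds the enzyme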
# GSTO1 inh: blocks human GSTO1 in RBBP9 counter-screen; P78417; recombinant GSTO1, activity-based probe fluorescence polarization; inhibition, % at 5.96 µM; 300,000 tested, 1.1% active;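 active = inhibition above the campaign mean inhibition plus 3 SD, cut at about 35% in these data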;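 also: 0% = GSTO1-1 with DMSO and 100% = wells lacking GSTO1-1 enzyme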
# Target sequence (P78417 whole entry, looked up): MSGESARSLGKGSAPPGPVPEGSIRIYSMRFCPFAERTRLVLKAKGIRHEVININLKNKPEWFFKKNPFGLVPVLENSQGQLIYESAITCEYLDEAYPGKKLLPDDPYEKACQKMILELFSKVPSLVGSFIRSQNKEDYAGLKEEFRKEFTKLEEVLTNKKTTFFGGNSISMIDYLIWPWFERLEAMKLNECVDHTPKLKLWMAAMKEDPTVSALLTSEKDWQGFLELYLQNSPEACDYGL
# Starred values were filed as active, the others as inactive; / = no result given. An excerpt; count on the stated rates, not on these rows.
# Fields – MCL1-BIM inh | PAD4 FP inh | GLD-1 RNA inh | MEX-5 binding | TPT1 inh | Bcl-xL primary | Fam108B inh | GSTO1 inh
1	COc1ccc(C)cc1S(=O)(=O)Nc1cc2c3c(c1)CC(=O)N3CCC2
    7 | 1 | -3 | 1.1 | 1 | 4 | 2 | 10
2	CC(OC(=O)CCNS(=O)(=O)c1cccs1)C(=O)Nc1ccc(S(N)(=O)=O)cc1 (stereo unspecified)
    -7 | -1 | 3 | / | / | -3 | / | /
3	Cc1ccccc1CNC(=O)Cn1cnc(S(=O)(=O)N2CCCC2)c1
    5 | -6 | 2 | 0.1 | -1 | 1 | 6 | -1
4	COc1ccccc1C(CC(=O)Nc1ccccc1C)c1ccc(OC(C)C)cc1 (stereo unspecified)
    2 | -6 | -7 | -1.3 | -2 | 7 | -8 | 0
5	CCN(CC)S(=O)(=O)c1ccc(OC)c(NC(=O)CSc2cc(C)ccc2C)c1
    -20 | 0 | -17 | 6.3 | 19 | -6 | -1 | -6
6	CC(C)(C)c1cc(NC(=O)C2CCCO2)no1 (stereo unspecified)
    0 | -2 | 5 | -0.4 | 2 | -3 | 4 | -3
7	CCOc1c(Br)cc(C(=O)NCCCn2ccnc2)cc1OC
    6 | 0 | 1 | 1.1 | -1 | 1 | 2 | -2
8	O=C(NCCc1cccc(F)c1)C1CCN(S(=O)(=O)c2ccccc2)CC1
    -3 | 2 | 1 | -1.5 | 1 | 1 | -2 | -2
9	CCOc1ccc(NC(=O)Nc2cc(C)ccc2F)cc1
    4 | 4 | -5 | 0.1 | -8 | 5 | 7 | 13
10	CCN(CC)S(=O)(=O)c1cccc(NC(=O)COC(=O)c2cc(C)oc2C)c1
    5 | -1 | -5 | -1.6 | -10 | 7 | 2 | 3
11	N#CCOC(=O)c1c2c(nc3ccccc13)CCC2
    13 | 4 | 6 | 1.5 | -2 | 11 | 6 | 0
12	COc1ccc(C)cc1S(=O)(=O)Nc1cccc(Cl)c1Cl
    8 | 1 | 4 | -0.3 | -9 | 6 | -6 | 2
13	O=S(=O)(Nc1cccc(-c2ccc(N3CCCCCC3)nn2)c1)c1ccc(C(F)(F)F)cc1
    2 | 1 | 7 | 0.8 | 1 | 3 | -22 | -18
14	CN1CCC(N(C)C(=O)c2ccccc2Nc2ccc(SC(F)F)cc2)CC1
    8 | -2 | -2 | 0.7 | 0 | 2 | 2 | 3
15	COc1cc2c(cc1OC)CN(C(=O)c1cc(S(=O)(=O)N3CCOCC3)c(Cl)cc1Cl)CC2
    8 | -1 | 3 | -1.6 | -1 | 2 | 0 | 0
16	O=C(CNc1cc([N+](=O)[O-])ccc1NCCO)Nc1cccc(S(=O)(=O)N2CCCCC2)c1
    7 | 0 | 5 | / | / | 6 | / | /
17	CC(C)C[C@H](NC(=O)c1nc[nH]c1C(=O)NC1CCN(C(=O)OC(C)(C)C)CC1)C(=O)OC(C)(C)C
    2 | -3 | 7 | 0.9 | -2 | -5 | 2 | 3
18	C/C(=N\Nc1ccc([N+](=O)[O-])cc1[N+](=O)[O-])c1ccc(-n2nncc2C(C)(C)C)cc1
    2 | -4 | 1 | -0.5 | 2 | 5 | 7 | 4
19	COc1ccc(-c2cc(=Nc3c(C)n(C)n(-c4ccccc4)c3=O)c3ccccc3o2)cc1
    -1 | -3 | 2 | -0.5 | -2 | 6 | -1 | -4
20	Cc1cccc(CCNc2nc3ccccc3n3nnnc23)c1
    -5 | -9 | -4 | 2.7 | -1 | 0 | -1 | -8

# Record cards, from the list above. Values in the order: MCL1-BIM inh	PAD4 FP inh	GLD-1 RNA inh	MEX-5 binding	TPT1 inh	Bcl-xL primary	Fam108B inh	GSTO1 inh
# CC(OC(=O)CCNS(=O)(=O)c1cccs1)C(=O)Nc1ccc(S(N)(=O)=O)cc1 (stereo unspecified) reads -7	-1	3	/	/	-3	/	/
# Cc1ccccc1CNC(=O)Cn1cnc(S(=O)(=O)N2CCCC2)c1 reads 5	-6	2	0.1	-1	1	6	-1

# Reprinted at random: four compounds from above
# Fields – MCL1-BIM inh | PAD4 FP inh | GLD-1 RNA inh | MEX-5 binding | TPT1 inh | Bcl-xL primary | Fam108B inh | GSTO1 inh
11	N#CCOC(=O)c1c2c(nc3ccccc13)CCC2
    13 | 4 | 6 | 1.5 | -2 | 11 | 6 | 0
12	COc1ccc(C)cc1S(=O)(=O)Nc1cccc(Cl)c1Cl
    8 | 1 | 4 | -0.3 | -9 | 6 | -6 | 2
2	CC(OC(=O)CCNS(=O)(=O)c1cccs1)C(=O)Nc1ccc(S(N)(=O)=O)cc1 (stereo unspecified)
    -7 | -1 | 3 | / | / | -3 | / | /
4	COc1ccccc1C(CC(=O)Nc1ccccc1C)c1ccc(OC(C)C)cc1 (stereo unspecified)
    2 | -6 | -7 | -1.3 | -2 | 7 | -8 | 0

# Next part:
# Fields – MCL1-BIM inh | PAD4 FP inh | GLD-1 RNA inh | MEX-5 binding | TPT1 inh | Bcl-xL primary | Fam108B inh | GSTO1 inh
21	CNC(=S)N/N=C/c1c(C)c(C(=O)c2ccc(F)cc2)n2ccccc12
    9 | -6 | 28 | -14 | -18 | 8 | 2 | -4
22	COc1ccc(S(=O)(=O)N2CCCCC2)cc1NC(=O)CCCNC(=O)c1ccc(Cl)cc1
    -6 | 2 | -3 | / | / | -3 | / | /
23	COc1ccccc1CNC(=O)CN1c2cccc3cccc(c23)S1(=O)=O
    0 | 3 | 3 | / | / | 3 | / | /
24	CCN(CC(=O)Nc1c(F)cccc1F)C(=O)C1CCN(S(=O)(=O)c2ccc(C)cc2C)CC1
    -5 | -10 | 2 | 2.6 | -2 | 0 | 5 | -7
25	CCOC(=O)c1c(C)[nH]c(C)c1S(=O)(=O)N(C)CC(=O)NCc1cccc(Br)c1
    -6 | -6 | -1 | 2.8 | -4 | -1 | -2 | -2
26	CC(C)(C)OC(=O)N1CCC(c2cc(=O)n3[nH]cc(C(=O)Nc4ccc(F)c(Cl)c4)c3n2)CC1
    2 | -2 | 2 | 0.7 | 0 | 4 | 7 | -8
27	CCN1CCCC1CNS(=O)(=O)c1c(C)cc(C)cc1C (stereo unspecified)
    8 | 0 | -1 | -0.6 | 1 | 0 | 2 | 0
28	Cc1cc(C)c(NC(=O)C2CCCN2CCC(C)C)c(C)c1 (stereo unspecified)
    -7 | -2 | 0 | -0.9 | -1 | 1 | 0 | -1
29	COc1cccc(NC(=O)CC(c2ccc(OC(C)C)cc2)c2ccccc2OC)c1 (stereo unspecified)
    3 | 1 | 10 | 0.5 | -2 | 5 | 0 | -9
30	O=C(O)COCC(=O)Nc1ccc2c(c1)ncn2CCc1ccccc1
    1 | -4 | 3 | 4.3 | -2 | 2 | 4 | -1
31	Cc1ccc(CNC(=O)Cn2cnc(S(=O)(=O)N3CCCCC3)c2)o1
    -1 | -4 | 9 | 1.9 | -1 | 6 | 1 | 5
32	COc1ccc2oc(-c3ccccc3)c(C(=O)N(C)C)c2c1
    -4 | -3 | 1 | -0.3 | 3 | 0 | 6 | -2
33	C=CCNC(=O)C1(S(=O)(=O)c2ccccc2)CC=CC1
    1 | 3 | -2 | -2.4 | 1 | 2 | 1 | 4
34	COc1ccc(NC(=O)c2ccc(Br)o2)cc1
    4 | -3 | -8 | 2.0 | 0 | -1 | -3 | 4
35	O=C(CSc1nc2cc(Cl)ccc2s1)NC1CCCc2ccccc21 (stereo unspecified)
    1 | -6 | -6 | -2.4 | 0 | 3 | -5 | -2
36	CC1(C)C/C(=N\NC(=S)Nc2ccccc2F)c2cc(O)ccc2O1
    9 | -3 | -2 | 0.3 | -2 | 7 | -6 | -27
37	Cc1[nH]c2ccccc2c1SCCNC(=O)c1ccc(Br)o1
    3 | 2 | 3 | -3.7 | 0 | 2 | 4 | 5
38	O=C(OCc1cccc(C(F)(F)F)c1)c1cc(S(=O)(=O)N2CCOCC2)ccc1F
    -5 | 1 | 7 | 2.3 | 3 | -8 | 1 | 4
39	COc1ccc(Br)cc1CN(C)CC(=O)Nc1c(Cl)cccc1Cl
    6 | -1 | -1 | 2.7 | 2 | 3 | -5 | 1
40	COc1cc2c(cc1OC)CN(C(=O)Cn1ccccc1=O)CC2
    14 | 2 | 5 | 0.7 | -1 | 3 | 6 | 13

# (continued)
entry	compound	MCL1-BIM inh	PAD4 FP inh	GLD-1 RNA inh	MEX-5 binding	TPT1 inh	Bcl-xL primary	Fam108B inh	GSTO1 inh
41	CCOC(=O)c1c(C=O)c(C)n(Cc2ccccc2Cl)c1C	1	0	1	1.3	1	-1	1	8
42	CSc1nc(-c2ccco2)nn1S(=O)(=O)c1ccccc1	-5	-7	-10	-1.7	-5	-3	-4	6
43	CC(=O)c1c(C)[nH]c(C(=O)OCC(=O)N2CCN(S(=O)(=O)c3ccc(C)cc3)CC2)c1C	2	6	2	/	/	3	/	/
44	Cc1[nH]c2ccccc2c1/C=N/NC(=O)c1cc(-c2cccs2)[nH]n1	9	1	-10	-1.7	3	9	11	-7
45	O=C1Nc2cc(C(=O)N3CCN(c4ccccn4)CC3)ccc2S/C1=C\c1ccccc1	-11	4	6	5.5	3	0	-7	-198
46	CN(C)c1ccccc1C(=O)N1CCCC(C(=O)c2ccc3ccccc3c2)C1 (stereo unspecified)	1	-2	1	0.7	-1	5	-3	3
47	COc1cc2c(cc1OC)C(c1ccccc1)N(C(=O)c1ccccc1F)CC2 (stereo unspecified)	0	-6	-1	2.1	-4	-1	2	3
48	COc1cccc(-c2nc(-c3ccc(NC(=O)c4cccs4)cc3)no2)c1	-4	-3	10	-0.9	-2	2	-3	-2
49	NC(=O)c1ccc(-c2c(-c3ccccc3)sc3ccccc23)cc1	3	-1	-3	/	/	5	/	/
50	CN1CCCC(OC(=O)c2cccc(S(=O)(=O)N3CCCCCC3)c2)C1 (stereo unspecified)	1	2	8	-1.9	-2	6	1	2
51	Cn1c(=O)c([N+](=O)[O-])c(N2CCN(Cc3ccc4c(c3)OCO4)CC2)c2ccccc21	-3	0	3	-1.5	1	7	1	1
52	COc1ccc(-c2nc(-c3ccc(NC(=O)c4ccncc4)cc3)no2)cc1OC	5	1	4	-3.9	-1	-2	-13	-35
53	CN(CC(=O)NC1CCCc2ccccc21)S(=O)(=O)c1ccc2c(c1)c(=O)n(C)c(=O)n2C (stereo unspecified)	2	0	5	-3.4	-1	4	-2	0
54	CCOC(=O)c1sc(NS(=O)(=O)c2cc(C)ccc2C)nc1C	7	-2	3	-0.8	-2	4	1	-15
55	CCC(=O)c1ccc(OCC(=O)N2CCc3cc(OC)c(OC)cc3C2)cc1	-9	-1	-3	/	-4	-6	2	-5
56	O=C(COC(=O)CNC(=O)c1cccs1)Nc1ccc(C(F)(F)F)cc1[N+](=O)[O-]	2	3	0	-0.2	-1	6	-1	-9
57	Cc1[nH]n2c(=O)c3c(nc2c1-c1cccc2ccccc12)CCC3	10	-4	-11	1.7	6	0	-7	-29
58	COc1ccc(S(=O)(=O)N2CCCCCC2)cc1C(=O)NCCc1ccccc1	-1	-3	3	/	/	2	/	/
59	C=C(C)c1cccc(C(C)(C)NC(=O)NCc2ccc(OC)c(OC)c2)c1	0	-2	5	1.8	-1	4	4	14
60	O=C(Nc1ccccc1N1CCN(C(=O)c2ccccc2)CC1)c1cc(Br)ccc1Cl	-3	4	5	0.8	-1	-1	-5	-5
61	Cc1ccc(-n2c(SCC(N)=O)nnc2-c2ccco2)cc1	-7	1	2	-2.0	2	-2	3	4
62	O=C(NCCCN1CCOCC1)c1ccc2c(c1)N(Cc1cccc(Cl)c1)C(=O)CS2	2	-3	3	0.2	0	4	-2	-17
63	CCOC(=O)N1CCN(C(=O)c2ccc3c(c2)NC(=O)/C(=C\c2cccc(C)c2)S3)CC1	9	-1	8	-17	-2	6	2	-255
64	O=C(Nc1ccc2c(c1)Cc1ccccc1-2)c1ccc(Br)o1	-1	-3	0	0.3	-4	4	-6	-8
65	CC(=O)N1CCN(S(=O)(=O)c2cccc(C(=O)OCN3C(=O)c4ccccc4C3=O)c2)CC1	-1	6	2	1.0	1	0	1	26
